Bioassay records as filed in PubChem BioAssay.
D2 potentiator: positive allosteric modulators of human D2 dopamine receptor | P14416 | DiscoveRx D2 beta-arrestin cells, luminescence, 90 min; 100% = 57 uM dopamine signal | potentiation, % (concentration not given with the values) | hit rate 0.23% among 360,000; active = potentiation of 50% or more; inconclusive = 30% to 50%; inactive = 30% or less;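 note: compound concentration not given in the record; tested on top of an EC20 dose of dopamine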
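D2 cells co-treated with compound plus 50 nM dopamine (EC20) for 90 min at 37 deg C to detect potentiation. Beta-arrestin recruitment was read as enzyme-fragment luminescence after 1 h at ambient temperature. Full response was set by 57 uM dopamine.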
PINK1 expr mod: modulators of PINK1 expression; PINK1 immunofluorescence, high-content cytometry, 24 h; Potency, µM (top dose mostly 76.6 µM), for the others: top-dose activation (PINK1 increase), most hits filed as activators; hit rate 0.2% among 410,000; AID 624263; active = well fitted activation curve with a large enough effect; inconclusive = small, poorly fitted or top-dose-only effect; inactive = flat fitted curve, though single readings scatter; cell line not stated here;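 note: potency is the fitted concentration of half-maximal effect; % of control where 0% means no effect; nearly all actives have a fitted effect of over 65% in size; a mitochondrial uncoupler was the plate control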
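Fluorescence from anti-PINK1 antibody, together with nuclear and cell stains, was scanned on a laser-scanning cytometer. Before staining, stable-line cells were incubated 24 hours with compounds at 5 concentrations; primary antibody 12 h at 10 degrees C.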
TRPML1 agonist: activates the human TRPML1 channel; Q9GZU1; TRPML1-expressing cells, Ca2+ dye fluorescence, FDSS; host cell line not named in the record; reference of the full effect not given here; activation, % (no concentration beside the values); hit rate 0.12% among 410,000; AID 624414; in the data active = activation above about 50%; inconclusive = about 30% to 50%; inactive = below about 30%; note: 0% is about no effect; the text of the record puts the active cut at 80%
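Tet-induced TRPML1-DL cells, 1,500 per well, cultured overnight, were loaded with a no-wash Ca2+ dye for 45–90 min. Calcium fluorescence was recorded on the FDSS for 110 s after compound addition, before the EC80 agonist (4 uM 54-4) was added.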
D2 agonist: agonists of human D2 dopamine receptor (beta-arrestin); P14416; DiscoveRx PathHunter D2 beta-arrestin, luminescence, 90 min; 100% = 57 uM dopamine signal; activation, % (concentration not given with the values); hit rate 0.084% among 360,000; AID 624465; in the data active = activation above about 40%; inconclusive = about 15% to 40%; inactive = below about 15%; note: compound concentration not given in the record; the text of the record calls up to 30% inactive
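DiscoveRx PathHunter D2 beta-arrestin cells (2,100/well) attached overnight, then compound-stimulated 90 min at 37 C in HBSS/10 mM HEPES/0.1% Tween-20 buffer; beta-galactosidase complementation read by luminescence after 1 h at ambient temperature. Dopamine 57 uM final (EC100) as control.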
CtBP-E1A inh: inhibitors of CtBP/E1A interaction; AlphaScreen GST-E1A/His-CtBP binding, 1536-well; active compounds read low; control for the full effect not named in the record; activity change, % (concentration not given with the values); hit rate 0.49% among 340,000; in the data active means activity change below about -65%; inconclusive means about -30% to -65%; inactive means above about -30%; note: % is set by controls: 0 for no effect and ±100 for the full control effect
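Homogeneous bead-based format: GST-tagged E1A captured on glutathione donor beads, His-tagged CtBP on nickel acceptor beads; compounds precede bead addition by 2 h at 37 °C.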
Six1-Eya2 inh: inhibitors of human Six1/Eya2 interaction; hit rate 0.56% among 360,000; activity change, % (concentration not given with the values); Q15475+O00167; AlphaScreen GST-Six1/His-Eya2 binding, biochemical; active compounds read low; control for the full effect not named in the record; in the data active = activity change below about -65%; inconclusive = about -30% to -65%; inactive = above about -30%; note: % is set by controls: 0 for no effect and ±100 for the full control effect
Target sequence (O00167 whole entry, looked up): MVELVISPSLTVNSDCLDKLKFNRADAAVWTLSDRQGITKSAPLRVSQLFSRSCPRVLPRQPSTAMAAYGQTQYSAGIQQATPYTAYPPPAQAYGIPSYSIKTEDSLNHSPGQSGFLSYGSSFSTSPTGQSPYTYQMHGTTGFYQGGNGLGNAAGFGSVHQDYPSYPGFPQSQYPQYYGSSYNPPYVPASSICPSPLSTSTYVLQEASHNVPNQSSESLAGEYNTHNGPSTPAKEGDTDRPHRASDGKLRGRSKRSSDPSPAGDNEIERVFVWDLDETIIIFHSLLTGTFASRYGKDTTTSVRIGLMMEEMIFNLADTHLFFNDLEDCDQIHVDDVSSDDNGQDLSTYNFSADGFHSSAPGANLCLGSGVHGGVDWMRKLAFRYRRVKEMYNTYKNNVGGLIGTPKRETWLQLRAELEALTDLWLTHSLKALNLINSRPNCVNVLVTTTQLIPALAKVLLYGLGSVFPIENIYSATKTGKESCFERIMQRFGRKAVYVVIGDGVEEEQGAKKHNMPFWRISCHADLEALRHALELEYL
Target sequence (Q15475 whole entry, looked up): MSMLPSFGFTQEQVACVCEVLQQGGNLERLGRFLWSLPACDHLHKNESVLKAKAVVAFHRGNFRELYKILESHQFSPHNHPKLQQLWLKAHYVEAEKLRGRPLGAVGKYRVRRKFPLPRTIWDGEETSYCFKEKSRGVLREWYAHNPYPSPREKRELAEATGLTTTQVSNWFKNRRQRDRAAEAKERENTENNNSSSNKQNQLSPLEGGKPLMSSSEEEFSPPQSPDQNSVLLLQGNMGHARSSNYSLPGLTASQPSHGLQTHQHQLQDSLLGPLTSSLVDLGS
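Compounds are tested against tagged Six1 and Eya2 proteins bridged by glutathione donor and nickel acceptor beads; after a one-hour incubation at 37 °C without light, AlphaScreen emission is recorded.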
* marks the source's active call; other numbers are inactive results; ? = inconclusive; . = no result given; & = joins results of further samples; [ ] = dose if it differs, or a comment.

SMILES	D2 potentiator	PINK1 expr mod	TRPML1 agonist	D2 agonist	CtBP-E1A inh	Six1-Eya2 inh
COC(C/C=C\[C@@H](O)[C@@H](C)OCc1ccccc1)OC	-8	-1.1%	-0.5	-1.8	5	6
CCC(Cc1ccccc1)NS(=O)(=O)c1c(C)nc2scc(C)n2c1=O (configuration not stated)	-2	-0.2%	0.4	-1.7	-25	1
Cc1ccc(S(=O)(=O)N2CCN(CC(=O)Nc3ccc([N+](=O)[O-])cc3)CC2)cc1C	3	12%	1.3	3.0	-13	-9
COc1cc(/C=N/NC(=O)c2ccc(CN(C)S(=O)(=O)c3ccc(C)cc3)cc2)ccc1O	-5	3.9%	-0.4	1.9	-9	-5
Cc1ccc2c(c1)C(c1ccccc1)N(C(=O)c1ccc(Br)o1)CC(=O)N2 (configuration not stated)	0	0.2%	0.7	-9.3	6	-11
CCOCc1nnc(NC(=O)CCc2ccccc2)s1	-15	-0.5%	0.2	-1.3	-1	2
CCOC(=O)Cn1c(=O)c2c(nc3n2CCN3Cc2ccccc2)n(C)c1=O	-3	3.6%	-0.8	-0.5	0	-3
CC1=CCC(C(=O)O)(C(=O)N/N=C/c2cccnc2)C(c2ccccc2)C1 (configuration not stated)	-3	-0.6%	-0.7	1.1	.	8
Cc1cc(C)n(-c2ccc(C(=O)Nc3cccnc3)cc2)n1	0	-0.1%	-0.1	-4.0	0	0
N#CC(c1ccncc1)(c1ncc(C(F)(F)F)cc1Cl)N1CCOCC1 (configuration not stated)	-15	-0.6%	0.0	1.8	7	-22
O=C(Cn1nnc(-c2ccc(CN3CCOCC3)cc2)n1)NC1CCCCC1	-12	28%[38.3 µM]	-0.3	0.1	8	3
COc1ccc(C(=O)CSc2nc3ccc([N+](=O)[O-])cc3[nH]2)cc1	-17	?	0.4	-1.5	-10	-4
O=C(Nc1cccc(F)c1)NC1(C(=O)N2CCOCC2)CCCCC1	-7	0.8%	-0.8	-6.9	-5	-6
Cn1cnnc1SCC(=O)NNC(=O)c1ccc(Cl)cc1	-13	2.1%	-0.4	-2.4	11	15
CC1Cc2ccccc2N1C(=O)CN1C(=O)COc2ccccc21 (configuration not stated)	-3	-2.1%	0.1	-2.9	4	-1
CCOc1ccc(C(CC(=O)O)NC(=O)c2ccco2)cc1 (configuration not stated)	11	-0.1%	-0.4	0.1	2	-1
Cc1ccc(NC(=O)COC(=O)c2ccco2)cc1S(=O)(=O)N1CCOCC1	-4	-0.2%	0.5	-1.4	-20	-6
O=C(NCCN1CCN(Cc2ccccc2Cl)CC1)Nc1ccccc1	-21	8.2%[38.3 µM]	0.8	-2.3	4	-2
CCCCNC(=O)Nc1nnc(-c2ccccc2)o1	-17	1.8%	0.5	-1.4	-7	-3
Cc1ccc2c(c1)NC(=O)C(CC(=O)NCCCN1CCCC1=O)O2 (configuration not stated)	-4	2.4%	0.5	-5.1	1	9

Part of the list above, as labelled records:
Cn1cnnc1SCC(=O)NNC(=O)c1ccc(Cl)cc1
  D2 potentiator: -13
  PINK1 expr mod: 2.1%
  TRPML1 agonist: -0.4
  D2 agonist: -2.4
  CtBP-E1A inh: 11
  Six1-Eya2 inh: 15

CC1Cc2ccccc2N1C(=O)CN1C(=O)COc2ccccc21 (configuration not stated)
  D2 potentiator: -3
  PINK1 expr mod: -2.1%
  TRPML1 agonist: 0.1
  D2 agonist: -2.9
  CtBP-E1A inh: 4
  Six1-Eya2 inh: -1

CCOc1ccc(C(CC(=O)O)NC(=O)c2ccco2)cc1 (configuration not stated)
  D2 potentiator: 11
  PINK1 expr mod: -0.1%
  TRPML1 agonist: -0.4
  D2 agonist: 0.1
  CtBP-E1A inh: 2
  Six1-Eya2 inh: -1

Cc1ccc(NC(=O)COC(=O)c2ccco2)cc1S(=O)(=O)N1CCOCC1
  D2 potentiator: -4
  PINK1 expr mod: -0.2%
  TRPML1 agonist: 0.5
  D2 agonist: -1.4
  CtBP-E1A inh: -20
  Six1-Eya2 inh: -6

The list continues.
SMILES	D2 potentiator	PINK1 expr mod	TRPML1 agonist	D2 agonist	CtBP-E1A inh	Six1-Eya2 inh
CN1CCC(=NNC(=O)CSCc2ccccc2)CC1	-17	-5.9%[38.3 µM]	0.8	-0.7	-15	-5
COc1cccc(CNC(=S)Nc2ccc3c(c2)c(=O)n(C)n3Cc2ccc(F)cc2)c1	-5	0.9%	0.0	9.2	-25	-8
CC1(C)CC(=O)C2=C(C1)Nc1ccccc1N(C(=O)C1CC1)C2c1ccco1 (configuration not stated)	-3	-1.6%	3.8	-0.1	-1	7
S=C(CSc1ccccc1)Nc1cccc2ccccc12	-10	1.2%	-0.3	2.8	-4	-1
CCOc1ccccc1NC(=O)c1ccc2nccnc2c1	-7	-1.0%[38.3 µM]	-0.2	1.6	6	-1
c1ccc(-c2nc(-c3ccncc3)n[nH]2)nc1	-44	0.5%	0.1	0.1	-1	-89*
COc1cc(/C=C/C(=O)O)cc(Br)c1O	0	-0.6%	0.7	-4.8	2	1
COc1ccc(C(NC(=O)/C=C\c2ccco2)c2ccc(OC)c(OC)c2)cc1 (configuration not stated)	-16	1.4%[38.3 µM]	0.1	-3.3	-4	-3
O=C(OCC(=O)N1CCc2ccccc21)c1ccc([N+](=O)[O-])cc1	-9	6.0%	-0.3	0.9	1	-3
O=C1CC(N2CCN(c3ccc(S(=O)(=O)N4CCCC4)cc3)CC2)C(=O)N1c1ccc(F)cc1 (configuration not stated)	-10	-0.3%	0.4	1.9	4	5
CCN(CC(=O)Nc1c(F)cccc1F)C(=O)c1cccc(S(=O)(=O)N2CCc3ccccc3C2)c1	-7	-1.3%	1.0	-1.3	-25	-4
COC(=O)c1ccccc1NC(=O)c1cnn2cccnc12	-1	-0.2%	-0.1	-3.4	-12	2
CC(OC(=O)CNC(=O)C12CC3CC(CC(C3)C1)C2)C(=O)Nc1ccc(N2CCOCC2)cc1 (configuration not stated)	3	0.6%	-0.9	0.0	-2	-8
O=C(CCCCCCCC(=O)N1CCCCCC1)N1CCCCCC1	8	-1.7%	-0.3	1.1	2	5
CCN1C(=O)[C@H]2[C@@H](c3ccc(SC4CCCCC4)c(OC)c3)N3CCCC[C@@]3(C(=O)OC)[C@H]2C1=O	-14	4.8%	0.1	-1.1	-8	-14
CCOC(=O)C1=CC[C@@H](c2ccccc2)N(S(=O)(=O)c2ccc(C)cc2)[C@H]1C	-5	0.4%	1.3	-4.9	9	2
CCc1nc2ccc(C(=O)N3CCN(C(=O)c4ccco4)CC3)cn2c1N(C)C(=O)Nc1ccccc1OC	-1	0.5%	-0.4	4.7	5	-3
CC1CCCC(NC(=O)COC(=O)Cc2c[nH]c3ccccc23)C1C (configuration not stated)	6	-0.1%	0.6	0.2	4	1
CCOCc1nnc(NC(=O)CSCc2ccccc2)s1	-3	-0.4%	0.3	-1.7	0	3
COC(=O)c1cc(C(=O)CC(C)C)c[nH]1	-1	1.7%	-0.5	-5.4	-11	1
O=C(COC(=O)CN1C(=O)C2CC=CCC2C1=O)Nc1cc(C(F)(F)F)ccc1N1CCOCC1 (configuration not stated)	1	-1.6%	-0.1	-0.8	-5	3
CCC(C)[C@H](N)c1nnc(SCc2cccc(F)c2)o1 (some centres not stated)	-9	4.8%[38.3 µM]	0.6	-0.8	4	3
CCNC(=O)C1CCCN(C(=O)c2ccccc2)CC1 (configuration not stated)	-1	0.8%	-0.5	6.0	5	1
Cc1nc2cc(C(=O)OCC(=O)Nc3cccc(Cl)c3)ccc2n1-c1ccccc1	8	-1.4%	-0.1	0.3	3	-1
O=C(NCc1ccc(F)cc1)c1cccc(S(=O)(=O)N2CCCC2)c1	-27	0.7%	1.4	-1.2	-4	-24
O=C(CNC(=O)c1ccccc1)NCC(=O)OCc1ccccc1Cl	-8	-0.8%	-1.0	-13	-1	-1
Cc1ccccc1-c1nc2ccccc2c(=O)n1/N=C/c1ccccc1[N+](=O)[O-]	18	-0.9%	3.6	2.6	-18	-10
CCCCN(CCCC)CCCNC(=O)Cn1cc2c(n1)-c1c(oc(C(=O)N3CCCC3)c1C)CC2	-15	-0.4%&-1.2%	-0.5&0.7	-4.4	-14	-3
O=C(NCc1nc2ccccc2[nH]1)C1=C[C@@H](c2csc3ccccc23)C[C@@H](OCc2ccc(CO)cc2)O1	0	-1.2%	2.8	2.4	-11	-6
CN(C)C(=O)CSc1nnc(C23CC4CC(CC(C4)C2)C3)o1	-6	?	0.4	0.7	5	4
COC1=CC(=Cc2c(N)n3nc(CC(=O)N4CCCCC4)sc3nc2=O)C=C(OC)C1=O	2	-0.2%	3.2	-2.6	-8	-4
COc1ccc(NC(=O)COC(=O)CCCOc2ccc(Cl)cc2Cl)cc1Cl	3	1.0%	2.0	-4.5	1	4
O=C(Nc1nccs1)C1C2CC3OC(=O)C1C3C2 (configuration not stated)	-19	-0.2%	-0.4	-0.2	3	7
COC(=O)c1ccccc1NC(=O)CN1CCC(C(=O)c2ccc3c(c2)OCCO3)CC1	-8	5.5%[38.3 µM]	1.2	1.4	-9	-9
CNC(=O)C(C)c1ncc(C(F)(F)F)cc1Cl (configuration not stated)	-4	-0.6%	0.3	-4.3	-4	-2
COc1cccc(NC(=O)CN(C)C(=O)c2cc(C)oc2C)c1	0	0.2%	2.1	3.9	2	-3
Cc1cccc(CSCCNC(=O)c2ccc(CN3CCOCC3)cc2)c1	-7	1.6%	-0.4	-1.8	-3	-21
COc1cc(OC)c(CNC2CCCCCC2)cc1Br	-13	0.5%	0.0	-6.4	-9	5
CCOC(=O)C1=CN(Cc2ccco2)S(=O)(=O)N(CC)C1c1ccc(F)c(Cl)c1 (configuration not stated)	-4	1.2%	0.8	-2.9	0	-1
CC1(c2ccccc2)CC(C)(C)n2c(O)c(C3=NC(=S)NC3=O)c3cccc1c32 (configuration not stated)	4	0.9%	0.6	-0.1	.	-25
Cc1c(Cl)sn(-c2ccc(Cl)cc2)c1=O	-20	4.1%	0.7	-0.1	-2	-3
O=C(c1ccccc1NS(=O)(=O)c1cccs1)N1CCCC1	0	-2.1%	1.0	-2.1	3	2
O=c1c(Cc2c(F)cccc2Cl)c(O)ccn1CCc1ccccn1	-21	-1.2%	-0.5	1.2	3	5
CC(NCC(=O)Nc1ccccc1C(=O)NC1CC1)c1cccc(C(F)(F)F)c1 (configuration not stated)	1	0.6%	2.0	7.8	1	-1
O=C1N=C(N2CCN(c3ccccc3)CC2)S/C1=C\c1cn[nH]c1-c1ccccc1	22	?	1.6	-0.4	11	?
CCCNC(=O)c1onc(CS(=O)(=O)c2cc(C)cc(C)c2)c1C(=O)NCCC	-1	5.7%	0.3	-1.8	6	-1
OC(CNC1CCCCCC1)COc1cccc2ccccc12 (configuration not stated)	-31	-0.7%	-0.2	-3.6	2	-2
CCS(=O)(=O)c1ccc2oc(SCC(=O)NC34CC5CC(CC(C5)C3)C4)nc2c1	1	-3.1%	0.4	3.2	-3	7
CCOc1ccc(C(=O)OCC(=O)Nc2ccc(SC(F)F)cc2)cc1OCC	-2	10%	2.6	-3.3	3	12
Cc1ccc(NC(=O)CNC(=O)C23CC4CC(CC(C4)C2)C3)nc1	-8	-0.4%	-0.6	-4.1	4	3
COc1ccc(C(=O)C[n+]2ccccc2C)cc1	-1	-1.5%	-0.5	0.7	1	-14

Outcome played no part in choosing rows, and some 1.3% of all compounds hit somewhere here.
